# NPR1 antag = antagonists of human natriuretic peptide receptor Npr1; Potency, µM (doses to about 46.3 µM), for the others: at the highest dose activity change, negative = inhibition, most hits filed as inhibitors; hit rate 1.6% among 76,000; HEK293 hNpr1 GloSensor cGMP, ANP-stimulated luminescence; P16066; active = well fitted inhibition curve with a large enough effect; inconclusive = small, poorly fitted or top-dose-only effect; inactive = no such curve, though single readings can be large or run the other way;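 also: nearly all actives have a fitted effect of over 60% in size; nearly all hits also lower the signal before the agonist is added; a reference antagonist and vehicle were the controls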
# Target sequence (P16066 whole entry, looked up): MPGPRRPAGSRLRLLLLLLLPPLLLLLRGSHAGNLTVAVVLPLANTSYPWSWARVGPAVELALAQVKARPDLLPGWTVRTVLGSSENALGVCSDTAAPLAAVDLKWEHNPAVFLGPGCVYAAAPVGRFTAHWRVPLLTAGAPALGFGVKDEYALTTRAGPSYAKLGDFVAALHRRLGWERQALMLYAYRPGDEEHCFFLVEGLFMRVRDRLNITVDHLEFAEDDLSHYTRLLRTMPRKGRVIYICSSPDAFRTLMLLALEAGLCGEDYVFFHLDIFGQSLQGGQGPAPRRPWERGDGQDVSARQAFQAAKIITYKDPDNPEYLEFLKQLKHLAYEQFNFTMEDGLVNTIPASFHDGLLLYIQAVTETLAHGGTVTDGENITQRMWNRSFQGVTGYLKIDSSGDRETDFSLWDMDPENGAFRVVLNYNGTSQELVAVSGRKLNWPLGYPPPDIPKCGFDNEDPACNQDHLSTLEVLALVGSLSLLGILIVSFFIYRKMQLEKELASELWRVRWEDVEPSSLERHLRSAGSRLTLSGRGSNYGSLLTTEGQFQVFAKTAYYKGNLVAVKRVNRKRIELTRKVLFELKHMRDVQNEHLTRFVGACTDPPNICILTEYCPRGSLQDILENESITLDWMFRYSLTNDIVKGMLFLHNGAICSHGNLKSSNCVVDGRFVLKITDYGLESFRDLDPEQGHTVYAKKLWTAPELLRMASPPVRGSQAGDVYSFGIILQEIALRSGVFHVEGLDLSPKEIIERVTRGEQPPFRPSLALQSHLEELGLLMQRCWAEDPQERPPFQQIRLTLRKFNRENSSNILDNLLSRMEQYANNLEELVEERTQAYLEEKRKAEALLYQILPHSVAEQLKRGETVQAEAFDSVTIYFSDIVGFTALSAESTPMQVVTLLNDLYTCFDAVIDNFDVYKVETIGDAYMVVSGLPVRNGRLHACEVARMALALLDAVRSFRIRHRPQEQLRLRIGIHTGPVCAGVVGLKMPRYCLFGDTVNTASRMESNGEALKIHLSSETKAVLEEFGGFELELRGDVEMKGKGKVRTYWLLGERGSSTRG
#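 HEK293 cells stably expressing human Npr1 and cGMP GloSensor pGS-40F, loaded 2 h with 2% GloSensor reagent, given compound 30 min at room temperature. Luminescence read before and 20 min after 0.1 nM hNppA.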
# Active calls of the source: *; ? = inconclusive; [ ] = dose if it differs, or a comment. % is scaled to controls: 0 for no effect and ±100 for the full control effect; potency is read from the fitted curve at half-maximal effect.
Molecule	NPR1 antag
COc1ccc(-c2cn(C)c(=O)n3cc(COc4ccc(Cl)cc4)nc23)c(C)c1	-0.5%[70.6 µM]
Cc1cc(-c2ccnc(-c3nnc(C)n3-c3ccccc3)c2)ccn1	-0.4%[70.6 µM]
CCc1cc(=O)n(CC(=O)Nc2cc(Cl)ccc2OC)c(N2CCOCC2)n1	-30.3%
CC(C)NC(=O)N(C1CC1)C1CCOC2(CCN(C(=O)NCc3ccc(F)cc3)CC2)C1 (configuration not stated)	-15.6%
Cc1cc(=O)n(CC(=O)Nc2ccc(C)c(Cl)c2)c(N2CCOCC2)n1	-9.4%
CN1CCC(NC(=O)C2(C)CCc3cnc(Nc4ccccc4)nc32)CC1 (configuration not stated)	-2.6%[70.6 µM]
CCC(=O)N1CCCCCCNC(=O)[C@@H]2C[C@@H](C(=O)N3CCN(c4ccccn4)CC3)C[C@@H]21	-9.2%
OCC1CN(c2ncccn2)CC12CCN(Cc1ccc3[nH]ccc3c1)CC2 (configuration not stated)	0.8%
CO[C@H]1[C@H](NC(=O)c2ccccc2)c2ccccc2C12CCNCC2	3.7%
CCC(=O)N1CCC2(CCC(=O)N(CC3CC3)CC2)CC1	8.6%
Brc1ccc(-c2ccnc3nc(-c4ccco4)nn23)s1	0.4%
CCNC(=O)N1CCCC1c1noc(CCC(=O)NCCc2nc3ccccc3[nH]2)n1 (configuration not stated)	-1.1%
COc1cccc(C(=O)N2CCCC(c3nn(-c4ccccc4)c(=O)[nH]3)C2)c1 (configuration not stated)	25.0%
COc1ccccc1N1CCN([C@@H]2[C@H](O)[C@H](CO)O[C@@H]2CNS(=O)(=O)c2ccc(Cl)cc2)CC1	-2.1%
CC(=O)c1ccc(NC(=O)c2cc3c(n2C)CCN(Cc2ccccc2)C3)cc1	0.0%
CC(C)n1cnnc1CN(C)Cc1cn(-c2ccccc2)nn1	1.4%
O=C1NC2(CCN(CC3CCCCC3)C2)OCc2ccccc21 (configuration not stated)	8.4%[70.6 µM]
Cn1cc(C(=O)N2CCCC(C)(Cc3ccc4c(c3)OCO4)C2)c(=O)[nH]c1=O (configuration not stated)	0.9%
CCc1n[nH]c(CC2CCN(C(=O)C3CC3)CC2)n1	-0.9%
CN1CCN(c2ccc(C(=O)N[C@H](c3ccccn3)C3CC(O)C3)cc2)CC1 (some centres not stated)	10.6%
C=CCN(C)C(=O)[C@@H]1Cc2c[nH]c3cccc(c23)[C@H](CC(C)C)N1	-11.2%[70.6 µM]
CN1CC2(CCN(CC3CC3)CC2)CC1C(=O)N1CCOCC1 (configuration not stated)	?
Cn1nc(C(=O)N2C[C@@H](Oc3cccnc3)C[C@H]2C(N)=O)c2ccccc21	1.1%
Cn1ncc(N2CCCC(C(=O)O)C2)cc1=O (configuration not stated)	1.5%
CC(C)CCN1CCC2(CC1)CC(=O)N(c1ccccc1)c1ccccc1O2	?
CCN1CCN(C(=O)c2cc3cn(C4CC4)cc3s2)CC1	0.6%
CC(C)c1ccc(NC(=O)N2CC[C@@H](CC(=O)O)[C@@H](CC3=NCCc4ccccc43)C2)cc1	-0.7%
CC(C)OC(C)C(=O)N1CCc2onc(-c3ccc(C(F)(F)F)cc3)c2C1 (configuration not stated)	-28.3%
C=CCN1CC2(CCC1=O)CCN(C(=O)C1CCc3ccccc31)CC2 (configuration not stated)	-0.6%
O=C(c1nnc(COc2ccc(OC(F)(F)F)cc2)n1-c1ccccc1)N1CCC[C@@H]1C(c1ccccc1)c1ccccc1	3.6%
Cc1cccc(C(=O)N2CCC(C(NC(=O)c3ccccc3Cl)C(=O)NCC(C)C)CC2)c1 (configuration not stated)	0.5%
COCC(=O)NC1CCC12CCN(C(=O)C(C)C)CC2 (configuration not stated)	2.3%
COc1cc2c(cc1CN1CCC3(CCCNC3)C1)OCCCO2 (configuration not stated)	1.6%
COc1ccc(-c2noc([C@@H]3CCCN3C(=O)c3cc(F)ccc3F)n2)cc1OC	0.6%
Cc1cnn(-c2cc(N3CCC(n4cc(C5CCCC5)nn4)CC3)ncn2)c1	?
COc1cccc(NC(=O)N[C@H]2CCN(C(=O)C=C(C)C)[C@@H]2C(=O)N[C@@H](Cc2cccs2)C(N)=O)c1	-0.3%
CCN1c2cc(C(=O)Nc3ccc(C)cc3Cl)ccc2C(=O)N2CCCCCC21 (configuration not stated)	-1.1%
COc1ccc(CNC(=O)C[C@@H]2CCNC[C@@H]2Cc2cc(C(C)(C)C)on2)cc1	-1.8%[70.6 µM]
C[C@H](O)c1onc(-c2ccc(F)cc2)c1C(=O)N1CCC1	5.0%[70.6 µM]
Cc1ccccc1COC1CN(C(=O)C2CC(=O)N(C(C)(C)C)C2)C1 (configuration not stated)	4.4%
COCCN1CCCC2(CCN(C(=O)CCn3ccc(C)n3)C2)C1=O (configuration not stated)	-14.8%
CCNC(=O)N1CCCC(c2nc(-c3cccnc3)no2)CCNC(=O)CC1 (configuration not stated)	-0.7%
COCCNC(=O)c1ccc2c(c1)N(C)C(CC(=O)NCC(C)(C)C)CO2 (configuration not stated)	-1.8%
Cc1ccc(CNC(=O)[C@H]2CCC[C@@H](O)C2)c2cccnc12	5.7%
CC[C@H]1CN(C(=O)Nc2cccc(C(F)(F)F)c2)CC[C@H]1CC(=O)NCc1ccccc1	-1.9%
Cn1nc(C(=O)N2CCN(c3cc(-c4ccccc4)[nH]n3)CC2)c2ccccc21	5.7%
COCc1nc2nc(-c3ccccc3)c(-c3ccc(O)c(F)c3)cc2n1C	-25.6%[70.6 µM]
CC(=O)N1CCC(C2CCN(Cc3ccccc3F)C2)CC1 (configuration not stated)	9.1%
COc1ccc(-c2ccc3nnc(CNC(=O)c4cccc(C#N)c4)n3n2)cc1	5.6%
Cc1nn2c(c1-c1cccnc1N1CCOCC1)N(CCc1ccccc1)CCC2	3.98µM*
CCN1c2cc(C(=O)Nc3cccc(Cl)c3C)ccc2C(=O)N2CCCCCC21 (configuration not stated)	-16.2%
COC[C@@H]1CN(Cc2cccc(OC)c2OC)C[C@H]1C(=O)N(C)C	-13.6%
Cc1ccc(NC(=O)N2CCCCC2c2noc(COc3ccc(F)cc3)n2)cc1F (configuration not stated)	-26.5%
CN(C(=O)c1cccc2ccccc12)C1CCCN(C2Cc3ccccc3C2)C1 (configuration not stated)	0.0%
O=C(C[C@H]1NC(=O)c2ccccc2NC1=O)NCCc1ccco1	-2.0%
COc1cc(NC(=O)Cn2c(-c3ccc(F)cc3)nc(C)c(CCO)c2=O)cc(OC)c1OC	-16.4%
Cc1cc(C(=O)N2CCC(=O)N(Cc3ccc(F)cc3)C(C(C)C)C2)n[nH]1 (configuration not stated)	5.5%
COc1ccccc1CCNC(=O)C1CC(c2ccccc2)CN(C(=O)C2CC2)C1 (configuration not stated)	-0.6%
N[C@H]1CCN2C(=O)c3cc(-c4ccc(Cl)cc4)ccc3NC(=O)[C@@H]2C1	0.1%[70.6 µM]
COC(=O)[C@@H]1Cc2ncn(Cc3ccc(Cl)cc3)c2CN1S(=O)(=O)c1cccc(C(F)(F)F)c1	-0.4%

# Not a retest: entries from further up.
Molecule	NPR1 antag
COC[C@@H]1CN(Cc2cccc(OC)c2OC)C[C@H]1C(=O)N(C)C	-13.6%
Cc1ccc(NC(=O)N2CCCCC2c2noc(COc3ccc(F)cc3)n2)cc1F (configuration not stated)	-26.5%
CN(C(=O)c1cccc2ccccc12)C1CCCN(C2Cc3ccccc3C2)C1 (configuration not stated)	0.0%
O=C(C[C@H]1NC(=O)c2ccccc2NC1=O)NCCc1ccco1	-2.0%
COc1cc(NC(=O)Cn2c(-c3ccc(F)cc3)nc(C)c(CCO)c2=O)cc(OC)c1OC	-16.4%
Cc1cc(C(=O)N2CCC(=O)N(Cc3ccc(F)cc3)C(C(C)C)C2)n[nH]1 (configuration not stated)	5.5%

# (list continues)
Molecule	NPR1 antag
CN(C)CCOCC1(C)COc2ccc(C(=O)NCc3ccc(F)cc3)cc2N1 (configuration not stated)	6.2%[70.6 µM]
Cc1ccsc1CN1C[C@@H]2C(C(=O)N3CCOCC3)=NO[C@@H]2C1	0.2%[70.6 µM]
CC(C)c1nncn1C1CCN(S(=O)(=O)c2ccc(Br)s2)CC1	11.2µM*
Cc1cc(C(=O)N2CCC3(CCCNC3=O)C2)ccc1N1CCOCC1 (configuration not stated)	4.1%
CCN1C(=O)CCC2(C(=O)N3CCOCC3)CCCC=C12 (configuration not stated)	3.9%
O=C(NCC1CCOCC1)Nc1ccccc1C(F)(F)F	6.2%
CN1C(=O)CCCCC1C(=O)NCCN1CCCCC1 (configuration not stated)	7.8%
Cc1ccc(-n2nc(C)c([C@@H]3C=C[C@@H](NCc4cccc(C#N)c4)C3)c2C)cc1Cl	?
NC(=O)[C@@H](Cc1ccccc1)NC(=O)C1=C[C@@H](NC(=O)CC2(CC(=O)O)CCCC2)[C@@H](O)[C@H](O)C1	0.0%
Cc1ccc(Cn2c(C3CCN(C(=O)c4cc(C)cc(C)c4)CC3)n[nH]c2=O)cc1	3.1%
COCc1noc([C@@H]2CC(F)(F)CN2C(=O)c2occc2C)n1	0.6%
Cc1nn2c(c1-c1ccccc1-c1ccccc1)N(Cc1cccc(O)c1)CCC2	2.24µM*
Cc1ccc(NC(=O)C2CC(=O)N(c3n[nH]c4cccc(F)c34)C2)cc1 (configuration not stated)	4.8%
COc1ccc(CN(C)C(=O)c2ccc3oc(C)cc3c2)c2cccnc12	5.01µM*
Cc1ccccc1C(=O)NC1CCN(c2nc3ncccc3o2)CC1	0.9%[70.6 µM]
N#Cc1cccc(NC(=O)O[C@@H]2CO[C@H]3[C@@H]2OC[C@@H]3Nc2nccc(-c3cccc(F)c3)n2)c1	11.2µM*
Cc1ccc(NC(=O)N2CCCN(S(=O)(=O)c3ccccc3)CCC(=O)NCC2)cc1C	-0.6%
O=C(Nc1cnc(-c2cccc(Cl)c2)nc1)c1ccc(F)cc1Cl	?
CCC(c1cccs1)N1C(=O)[C@H]2CN(S(=O)(=O)c3cc(F)cc(F)c3)C[C@H]2C1=O (some centres not stated)	-0.8%
CCN(Cc1ccccc1)C(=O)c1c(C)oc2ccn(Cc3ccccc3F)c(=O)c12	-1.0%
COC(=O)C1=CN(CC(=O)NCc2ccccc2)S(=O)(=O)N=C1C	1.8%
O=C(CC1CCCC1)N1CC(c2nnc(-c3ccncc3)o2)C2(CCOCC2)C1 (configuration not stated)	1.7%
Cc1noc(C)c1CN1CC(C(=O)NCc2ccncc2)C2(CCOCC2)C1 (configuration not stated)	-5.5%
COc1cc(C)ccc1OCC(=O)c1ccc2c(c1)N(CC(=O)NCc1ccco1)C(=O)CO2	-5.2%
COCCN[C@H]1[C@@H]2OC[C@@H](O2)[C@@H](NCc2ccc(OC(F)(F)F)cc2)[C@@H]1O	0.4%[70.6 µM]
COc1ccc(-c2cc(-c3cccc(CO)c3)cn3cncc23)cc1	-20.4%[70.6 µM]
COc1ccc(S(=O)(=O)N2CCC3(CC2)CC(N2CCOCC2)CCO3)cc1 (configuration not stated)	-0.6%
Cc1ccc(C)c(CN2CCC3(CC2)[C@H](O)C[C@@H]3OCCN)c1	5.1%
COc1ccc(C(=O)Nc2ccc(-c3noc([C@@H]4CCCN4Cc4ccncc4)n3)cn2)cc1	12.6µM*
CCc1ccc(CNC(=O)CCC2CCN(C(=O)c3ccccc3)CC2)cc1	-18.5%
COCCn1ccc2c(C3=CCOCC3)nc(-c3cccc(N4CCOCC4)c3)cc21	1.8%[70.6 µM]
CS(=O)(=O)N1C[C@H]2CCN(C(=O)c3ccc(F)cc3Cl)C[C@H]21	2.4%
N#Cc1cccc(C(=O)N2CCC(Cc3nc(-c4cccnc4)n[nH]3)C2)c1 (configuration not stated)	0.8%
O=C(CCC1CCN(S(=O)(=O)c2cccc(F)c2)CC1)NCCN1CCOCC1	4.4%
CC(C)NC(=O)C1Cn2cccc2C(=O)N1 (configuration not stated)	2.5%
CN1C(=O)C(CC(=O)N2CCCOCC2)(Cc2ccccc2)c2ccccc21 (configuration not stated)	-2.2%
O=C(Cc1cccs1)N1CCC(n2cc(-c3nc(-c4ccccc4)no3)nn2)C1 (configuration not stated)	-26.3%
Cc1nn(-c2ccc(F)cc2)c(Oc2cccc(F)c2)c1CCC(=O)N1CCSCC1	-17.4%
Cc1ccc(CN2C[C@H]3CN(C(=O)c4cccnc4)CCN3C2=O)cc1	-3.0%[70.6 µM]
O=C(N[C@H]1CO[C@H]2[C@@H]1OC[C@@H]2n1nnnc1Oc1ccc(-n2ccnc2)cc1)c1ccc(C(F)(F)F)cc1	11.2µM*
Cc1cc(C)cc(C(=O)N2CCN(C(=O)c3nnn4c3COC(c3ccccc3)C4)CC2)c1 (configuration not stated)	-19.6%
CCOCCn1c(=O)[nH]c2cc(C(=O)NCCc3scnc3C)ccc21	0.0%
COc1cc(C)ccc1S(=O)(=O)NCC1CNCCOC1 (configuration not stated)	2.7%
O=C(c1ccc2c(c1)CCC2)N1C[C@H]2CC[C@@H]1CN(Cc1cscn1)C2	-4.7%
Cc1ccn(CC(=O)N(C)C2CCc3nn(CC4CC4)c(=O)n3CC2)n1 (configuration not stated)	1.3%
COCCc1nncn1C1CCN(C(=O)c2ccc(Br)o2)CC1	-0.8%
Cc1cnc(C(=O)NC2C[C@H]3CC[C@@H](C2)N3C(=O)Nc2cccc(C(F)(F)F)c2)cn1 (some centres not stated)	-14.3%
COC1CN(C2CCN(C(=O)C3CCOCC3)CC2)C12CCOCC2 (configuration not stated)	1.8%

# These rows are one share of the data. The share of hits here may be higher or lower than overall.
